D2 ag = activates the human D2 dopamine receptor. AID 624465. activation, % (no concentration beside the values). DiscoveRx PathHunter D2 beta-arrestin, luminescence, 90 min; 100% = 57 uM dopamine signal. 0.084% of 360,000 active. P14416; in the data active = activation above about 40%; inconclusive = about 15% to 40%; inactive = below about 15%; note: compound concentration not given in the record; the text of the record calls up to 30% inactive
Target sequence (P14416 whole entry, looked up): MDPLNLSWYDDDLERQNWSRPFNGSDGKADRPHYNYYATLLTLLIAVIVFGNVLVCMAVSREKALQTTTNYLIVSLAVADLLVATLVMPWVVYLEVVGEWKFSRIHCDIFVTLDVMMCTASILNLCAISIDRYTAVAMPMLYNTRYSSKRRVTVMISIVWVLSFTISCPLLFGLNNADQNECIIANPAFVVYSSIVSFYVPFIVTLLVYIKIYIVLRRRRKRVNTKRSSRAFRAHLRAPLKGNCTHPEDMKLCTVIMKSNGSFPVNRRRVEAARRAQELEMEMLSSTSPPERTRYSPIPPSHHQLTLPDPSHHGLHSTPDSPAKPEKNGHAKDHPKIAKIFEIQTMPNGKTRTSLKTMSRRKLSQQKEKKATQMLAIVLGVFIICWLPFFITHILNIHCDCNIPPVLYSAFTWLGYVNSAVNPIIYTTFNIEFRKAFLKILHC
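Agonist mode: compounds alone added to overnight-plated D2 PathHunter cells for 90 min at 37 C, with 57 uM final dopamine (EC100) defining full response. Beta-arrestin recruitment detected by chemiluminescent reagent, read after 1 h at ambient temperature.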
Six1-Eya2 blk = inhibitors of human Six1/Eya2 interaction; Q15475+O00167; AlphaScreen GST-Six1/His-Eya2 binding, biochemical; hits give low values; control for the full effect not named in the record; activity change, % (concentration not given with the values); 0.56% of 360,000 active; AID 651725; in the data active = activity change below about -65%; inconclusive = about -30% to -65%; inactive = above about -30%; note: % is set by controls: 0 for no effect and ±100 for the full control effect
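GST-Six1 + His-Eya2 (5X stock: 250/500 nM); Tris pH 8.0, 300 mM NaCl, 0.05% BSA, 0.02% Tween 20; GSH donor/Ni acceptor beads; 1 h 37 °C dark; AlphaScreen readout.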
TRPML1 inh = blocks the human TRPML1 channel | Q9GZU1 | TRPML1-inducible cells, Ca2+ dye fluorescence, FDSS; hits give low values; inhibition of EC80 agonist-evoked calcium signal | activity change, negative = inhibition, % (no concentration beside the values) | 0.02% of 390,000 active; in the data active means activity change below about -50%; inconclusive means about -30% to -50%; inactive means above about -30%;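 note: stimulus is agonist 54-4 at its EC80 concentration; % is set by controls: 0 for no effect and ±100 for the full control effect; compound concentration not given in the record; the text of the record puts the active cut at -80%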
Target sequence (Q9GZU1 whole entry, looked up): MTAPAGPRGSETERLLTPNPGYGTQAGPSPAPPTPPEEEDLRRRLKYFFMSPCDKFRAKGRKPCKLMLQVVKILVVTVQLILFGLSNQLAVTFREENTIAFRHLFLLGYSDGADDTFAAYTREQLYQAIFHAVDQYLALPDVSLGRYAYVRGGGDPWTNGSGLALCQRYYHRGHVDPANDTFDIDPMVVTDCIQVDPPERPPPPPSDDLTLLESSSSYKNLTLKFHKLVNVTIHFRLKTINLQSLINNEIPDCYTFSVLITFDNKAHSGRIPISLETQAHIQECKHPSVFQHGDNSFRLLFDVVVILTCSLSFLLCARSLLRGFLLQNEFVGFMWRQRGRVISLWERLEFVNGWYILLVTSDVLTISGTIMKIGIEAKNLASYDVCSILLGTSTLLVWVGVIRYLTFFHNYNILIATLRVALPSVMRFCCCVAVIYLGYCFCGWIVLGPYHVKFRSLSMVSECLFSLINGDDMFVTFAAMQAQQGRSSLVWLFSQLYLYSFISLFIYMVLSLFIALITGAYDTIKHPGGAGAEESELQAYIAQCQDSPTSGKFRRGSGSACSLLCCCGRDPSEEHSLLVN
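TRPML1-DL cells, Tet-induced overnight (~16 h, 37 °C) at 1,500 cells/well, were loaded with Ca8 no-wash dye plus quencher for 45-90 min at room temperature. Compounds were pinned during FDSS kinetic reading; agonist 54-4 at EC80 (4 uM final) then added.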
PINK1 modulator = changes PINK1 expression; 0.2% of 410,000 active; Potency, µM (highest dose often 76.6 µM), for inactives: at the top dose activation (PINK1 increase), usual class: activators; PINK1 immunofluorescence, high-content cytometry, 24 h; active = well fitted activation curve with a large enough effect; inconclusive = small, poorly fitted or top-dose-only effect; inactive = flat fitted curve, though single readings scatter; cell line not stated here;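 note: potency is the fitted concentration of half-maximal effect; % of control where 0% means no effect; nearly all actives have a fitted effect of over 65% in size; a mitochondrial uncoupler was the plate control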
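Stable cell line treated 24 h with compounds at 5 concentrations (CCCP controls), then fixed and immunostained for PINK1 plus nuclear and cell stains; PINK1 immunofluorescence quantified by laser-scanning microplate cytometry.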
TRPML1 agonist = human mucolipin-1 channel agonism; Q9GZU1; TRPML1-expressing cells, Ca2+ dye fluorescence, FDSS; host cell line not named in the record; reference of the full effect not given here; activation, % (no concentration beside the values); 0.12% of 410,000 active; AID 624414; in the data active = activation above about 50%; inconclusive = about 30% to 50%; inactive = below about 30%; note: 0% is about no effect; the text of the record puts the active cut at 80%
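Calcium fluorescence on an FDSS kinetic reader gave the read-out. Tet-induced TRPML1-DL cells were plated overnight, dye-loaded (Ca8 with quencher, 45-90 min, room temperature, dark), then read 110 s after compound addition, and again 110 s after 4uM final 54-4 (EC80).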
CtBP-E1A inh = blocks the CtBP interaction with E1A | 0.49% of 340,000 active | activity change, % (test concentration not listed) | AlphaScreen GST-E1A/His-CtBP binding, 1536-well; hits give low values; control for the full effect not named in the record | AID 651724; in the data active means activity change below about -65%; inconclusive means about -30% to -65%; inactive means above about -30%; note: % is set by controls: 0 for no effect and ±100 for the full control effect; compound concentration not given in the record
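GST-E1A and His-tagged CtBP (125 nM each as 5X stock) were preincubated with pin-transferred compound for 2 h at 37 °C in the dark, then glutathione donor and nickel acceptor beads were added for 1 h before AlphaScreen reading.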
Numbers without * were called inactive; ? = inconclusive; . = not tested or not shown; & = joins results of further samples; [ ] = another dose, or the depositor's remark.

The opening five compounds (preview)
molecule	D2 ag	Six1-Eya2 blk	TRPML1 inh	PINK1 modulator	TRPML1 agonist	CtBP-E1A inh
COc1cccc2cc(C(=O)N3CCN(c4cc(C)ccc4C)CC3)c(=O)oc12	.	.	?	-0.4%	2.9	.
Cc1cc(NC(=O)c2ccc(NC(=O)C3CC3)cc2)no1	-2.8	-15	11	0.6%	-0.4	-10
C=CCN(C(=O)Cn1nnc2ccccc21)C(C(=O)NCCOC)c1ccc(OC)cc1OC (centres undefined)	0.6	7	20	1.3%	0.5	-3
CC(NC(=O)C12CC3CC(C1)CC(n1cncn1)(C3)C2)C12CC3CC(CC(C3)C1)C2 (centres undefined)	-4.1	4	11	-0.7%	0.8	2
CCOC(=O)c1cc(-c2ccccc2)sc1NC(=O)C(C)N1C(=O)NC(C)(c2ccc(Cl)cc2)C1=O (centres undefined)	-1.9	-4	0	3.3%	0.2	0

Results, from the first entry:
molecule	D2 ag	Six1-Eya2 blk	TRPML1 inh	PINK1 modulator	TRPML1 agonist	CtBP-E1A inh
COc1cccc2cc(C(=O)N3CCN(c4cc(C)ccc4C)CC3)c(=O)oc12	.	.	?	-0.4%	2.9	.
Cc1cc(NC(=O)c2ccc(NC(=O)C3CC3)cc2)no1	-2.8	-15	11	0.6%	-0.4	-10
C=CCN(C(=O)Cn1nnc2ccccc21)C(C(=O)NCCOC)c1ccc(OC)cc1OC (centres undefined)	0.6	7	20	1.3%	0.5	-3
CC(NC(=O)C12CC3CC(C1)CC(n1cncn1)(C3)C2)C12CC3CC(CC(C3)C1)C2 (centres undefined)	-4.1	4	11	-0.7%	0.8	2
CCOC(=O)c1cc(-c2ccccc2)sc1NC(=O)C(C)N1C(=O)NC(C)(c2ccc(Cl)cc2)C1=O (centres undefined)	-1.9	-4	0	3.3%	0.2	0
Cc1ccccc1NC(=O)COC(=O)c1ccc(S(=O)(=O)N2CCCC2)cc1	0.9	3	11	2.8%	2.3	-1
CC(C)CC(NC=C1C(=O)OC(C)(C)OC1=O)C(=O)O (centres undefined)	0.6	2	9	-2.9%	3.2	4
COc1cc(C(=O)NCC2(N3CCCCC3)CCCCC2)ccc1OCC(=O)N1CCOCC1	-3.2	1	?	-0.4%	0.3	8
CC1CCN(C(=O)c2ccccc2NC(=O)c2cccc(S(=O)(=O)N(C)C)c2)CC1	1.8	2	6	-0.7%	-0.3	5
CCOc1ccccc1Nc1nnc(SCc2nnc(-c3cc(OC)c(OC)c(OC)c3)o2)s1	-4.2	-21	-1	-0.1%	3.6	-27
COC(=O)c1cc(-c2ccc(C)cc2)c2c(=O)n(C)c(=O)n(C)c2n1	.	.	6	-0.4%	1.6	.
O=c1[nH]cnc2c1c(-c1ccccc1)cn2-c1ccccc1	-3.0	-4	0	-1.6%	4.1	.
C=CCn1c(NC(=O)c2ccco2)nc2ccccc21	-1.0	-3	11	-0.9%	2.8	-4
COc1ccc(OC)c(C(=O)N2CCC(C(=O)c3ccc(F)cc3)CC2)c1	-0.6	7	-17	0.9%	-0.2	0
Cc1ccc(-n2ccc(=O)c(-c3ccnc(SCc4cccc(Cl)c4)n3)n2)cc1	-3.6	-2	11	-1.6%	3.5	-4
CCOC(=O)c1ccc(NC(=O)CN2Cc3ccccc3C2=O)cc1	.	.	14	0.3%	0.6	.
Cc1ccc(C(C)C)c(OCC(=O)NNC(=O)C(C(C)C)N2C(=O)c3ccccc3C2=O)c1 (centres undefined)	-2.9	-4	6	-0.8%	1.6	2
CCc1ccc(N2C(=O)CN(Cc3sccc3C)C2=S)cc1	-0.2	16	34	0.1%	4.4	3
Cc1ccc(C)c(NC(=O)C(NCC(C)(C)N2CCOCC2)c2ccccc2)c1 (centres undefined)	-1.6	0	-7	-0.1%	-0.3	4
CN(C)CCN(Cc1ccc(Cl)cc1)c1ccccn1	-2.7	-5	-5	-0.8%	0.1	-2
O=[N+]([O-])c1ccc(N(CCO)Cc2ccccc2)c([N+](=O)[O-])c1	7.5	-16	17	-0.9%	0.2	.
Cc1nn(CCC(=O)N2CCN(c3ccccc3)CC2)c(C)c1S(=O)(=O)N1CCCC1	.	.	-6	0.2%	-0.5	.
C#Cc1cccc(-n2nnc(C(C)=O)c2C)c1	-2.4	0	3	1.4%	-0.4	-2
C=CCN(c1ccccc1OC)S(=O)(=O)c1cccc(C(=O)OCC(=O)c2c(N)n(C)c(=O)n(C)c2=O)c1	-2.2	-10	0	2.6%	1.5	-8
CN(Cc1ccccc1)C(=S)NC(=O)c1cccs1	-1.6	1	-9	2.2%	-0.3	10
CCC(=O)c1cc2c(cc1NC(=O)c1ccc(C)cc1)OCCO2	-2.9	6	2	?	0.8	2
CCOC(=O)N1CCN(c2c(NCc3ccc(Cl)cc3)c(=O)c2=O)CC1	6.1	-1	-6	9.7%	-1.2	4
O=C(CSc1nnc(-c2cccs2)o1)Nc1cccc(S(=O)(=O)N2CCCCC2)c1	-0.2	-11	5	2.7%	0.8	1
COC(=O)c1ccc(N2CCc3ccccc32)c([N+](=O)[O-])c1	-3.7	-70*	.	1.6%	.	-29
O=C(NCc1cccs1)c1ccc(CS(=O)(=O)c2ccc(Cl)cc2)o1	0.0	3	-8	14%[38.3 µM]	1.9	-24
CC(NC(=O)c1cc(S(=O)(=O)N2CCCC2)cn1C)c1ccccc1 (centres undefined)	0.9	-1	-3	-1.1%	-0.3	-18
CCc1ccccc1NC(=O)c1cccc(N2C(=O)C3C4CCC(C4)C3C2=O)c1 (centres undefined)	-2.4	-2	22	0.4%	0.0	3
O=C(NC12CC3CC(CC(C3)C1)C2)N1CCN(C(=O)C2CCCO2)CC1 (centres undefined)	0.2	5	-1	.	1.2	5
COc1ccccc1NC(=O)CN(c1ccc(C)cc1)S(=O)(=O)c1c(C)n[nH]c1C	-1.8	-13	40	-1.8%	4.6	-13
Cc1nc2c(C)cccc2cc1C(=O)N/N=C/c1cccnc1	-1.7	-4	-1	-2.8%	-0.2	-17
CCC(CO)NC1=C([N+](=O)[O-])C(=O)CC(C)(C)C1 (centres undefined)	-2.8	1	-21	1.5%	-0.3	2
Cc1nn(CCCC(=O)NCc2ccc(F)cc2)c(=O)c2nccn12	-2.4	6	29	1.2%	0.0	0
COc1cc(CNC2CCCC2)c(Br)cc1OC1CCCC1	-18	6	1	12%	0.5	-8
O=C(OCC(=O)c1ccc[nH]1)c1ccc(Cl)c(Cl)c1	-4.4	-2	7	2.4%	2.1	-7
Cc1ccccc1OCCC(=O)OCC(=O)N1CCN(S(=O)(=O)c2ccc(Cl)cc2)CC1	-5.9	-6	-3	-0.2%	0.2	0
COCC[N+]1(C)CCCCC1	-1.4	3	-24	-0.5%	-0.2	-3
CN(Cc1cccnc1)C(=O)CC1C(=O)NCCN1CC(c1ccccc1)c1ccccc1 (centres undefined)	-1.8	7	-11	-0.9%	0.2	.
COC(=O)c1ccccc1NC(=O)C12CCC(C)(C(=O)O1)C2(C)C (centres undefined)	-2.8	6	5	4.8%[38.3 µM]	1.1	-12
CCCNC(=O)c1ccc(Cl)cc1Cl	-3.9	-6	22	3.6%	-0.4	2
Cc1ccccc1C(=NCCCN(C)C)c1ccccc1C	-3.5	-7	21	-1.7%	1.3	2

The list continues.
Second line of a record – D2 ag, Six1-Eya2 blk, TRPML1 inh, PINK1 modulator, TRPML1 agonist, CtBP-E1A inh
O=C(NCc1ccccc1)C1=C[C@H](c2ccc(C(F)(F)F)cc2)C[C@H](OCCCCO)O1
 : -4.4, 2, -4, 1.4%, 1.2, -15
N=c1ccn(Cc2cccc(Cl)c2)cc1
 : 4.3, 18, -7, 5.6%, 0.4, 0
CC(=NNC(=O)c1cccc(S(=O)(=O)N2CCOCC2)c1)c1ccccc1
 : -0.4, -1, 3, 5.0%, 0.3, 4
O=C(NCCc1ccc(F)cc1)Nc1ccccc1Cl
 : -4.0, 8, 23, 5.1%, 0.7, 5
CN(C)c1nc(C#N)nc(N(C)C)n1
 : 0.4, 6, 4, 0.7%&2.0%, -0.5&-0.3, -1
CC(C)C[C@H]1CN([C@@H](Cc2ccc(O)cc2)CN2CCCC2CN2C(=S)NC[C@@H]2Cc2ccccc2)C(=S)N1CC1CCCCC1 (some centres undefined)
 : ., -9, ., 0.2%, 0.2, -1
COCC(=O)Oc1c(S(=O)(=O)c2ccc(C)cc2)c(C)nn1C(C)(C)C
 : 0.7, 8, 10, -1.2%, -0.1, 10
COCCN(CCOC)C(=O)CC(=O)N(CCOC)CCOC
 : -0.6, 1, -3, 9.0%[38.3 µM], -0.7, 7
CC(=O)NC(CC(=O)NNC(=O)c1cccs1)c1ccccc1 (centres undefined)
 : -1.4, -1, -3, -1.6%, -0.5, 5
Clc1ccc(-c2nnn(Cc3nc4ccccc4s3)n2)cc1
 : 2.0, 31, -14, 4.5%, 2.5, 30
Cc1ccc(N=CC=C2OC(C)(C)C(C)(C)O2)cc1
 : 0.1, 0, 37, 8.4%, 1.2, -3
COc1ccc(Nc2nc(NCc3ccco3)nc(N/N=C/c3ccccc3)n2)cc1
 : -2.2, -23, 39, -0.8%, 1.3, -16
COc1cccc(-c2cc(N)nn2C(=O)Nc2ccc(Cl)cc2)c1
 : -1.6, 1, -2, 3.9%, 0.6, -5
CSCCC(NS(=O)(=O)c1ccc2c(c1)oc(=O)n2C)C(=O)NCCc1ccc(C)cc1 (centres undefined)
 : ., ., 23, 1.7%, 0.7, .
COc1ccc(OC)c(Cc2nnc(CCC(=O)N3CCCCC3)o2)c1
 : 5.1, 8, 9, -0.5%, 0.5, 7
CC(Nc1nc(-c2cccnc2)nc2ccccc12)c1ccc(F)cc1 (centres undefined)
 : -0.6, -26, -9, 17%, 1.0, -21
CCCN1CCc2c(sc3nc(SC)n(-c4ccccc4)c(=O)c23)C1
 : -3.5, -3, 8, 2.4%, 1.0, -7
CCc1nc(SCC(=O)N2CCCC2)c2ccccc2n1
 : -1.3, 2, -11, ., 0.3, 3
CCc1nc(Oc2cccc(F)c2)c2oc3ccccc3c2n1
 : ., ., -7, 2.2%, 0.6, .
CCOC(=O)C1CCCN(C(=O)Cc2ccc(OC)c(OC)c2)C1 (centres undefined)
 : -1.7, -13, 9, 4.9%, 1.5, -9
COc1ccc2c(CC(=O)Nc3ccc(OC)c(S(=O)(=O)N4CCOCC4)c3)coc2c1
 : -2.4, -18, 19, 1.3%, -0.6, -28
COc1ccc(CNC(=O)c2ccc3c(c2)nc2n3CCC(C)C2)c(OC)c1 (centres undefined)
 : ., ., -7, 0.4%, 1.2, .
CCOC(=O)N1CCN(C(=O)c2cn(CC)c3ccc(S(=O)(=O)N4CC(C)CC(C)C4)cc3c2=O)CC1 (centres undefined)
 : -8.1, 6, -5, 2.2%, 0.2, 2

Source: PubChem
